# Assay outcomes: PubChem BioAssay, National Center for Advancing Translational Sciences (NCATS)
# GLA spleen mod: inhibitors or activators of human alpha-galactosidase in spleen homogenate; P06280; human spleen homogenate, 4MU-alpha-Gal fluorescence, 40 min; Potency, µM (series often up to 80 µM), for inactives: at the highest dose activity change, negative = inhibition, usual class: inhibitors; 240,000 compounds, 0.008% hits; AID 2107;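 further: potency means the concentration at half of the fitted maximal effect; 0% = enzyme with vehicle and -100% = no enzyme basal signal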
# Target sequence (P06280 32-429 limits assumed): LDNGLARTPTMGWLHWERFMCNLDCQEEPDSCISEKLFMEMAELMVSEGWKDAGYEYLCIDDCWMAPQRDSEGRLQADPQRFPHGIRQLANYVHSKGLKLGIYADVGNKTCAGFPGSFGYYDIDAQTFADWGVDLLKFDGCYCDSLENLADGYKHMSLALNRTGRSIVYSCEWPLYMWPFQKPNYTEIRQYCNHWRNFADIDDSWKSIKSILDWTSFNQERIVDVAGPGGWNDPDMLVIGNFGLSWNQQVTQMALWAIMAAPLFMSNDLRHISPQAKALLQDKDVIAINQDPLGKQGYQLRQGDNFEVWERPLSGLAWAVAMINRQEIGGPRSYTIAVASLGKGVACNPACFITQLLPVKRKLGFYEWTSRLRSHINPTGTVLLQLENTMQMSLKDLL
#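 Human spleen homogenate (1 ug) as enzyme source, 4-methylumbelliferyl-alpha-D-galactopyranoside 1 mM final, citrate/phosphate pH 5.0 with 0.01% Tween-20. Compounds 40 min at 37C, NaOH/glycine stop; fluorescence Ex 365/Em 440, Hill-fit AC50.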
# Epigenetic derep: derepresses silenced GFP reporter in murine cells; murine LDR cells, GFP reporter derepression, 30 h; 280,000 compounds, 0.2% hits; Potency, µM (highest dose often 53.9 µM), without a hit: top-dose GFP activation, usual class: activators; further: potency means the concentration at half of the fitted maximal effect; % of control where 0% means no effect; nearly all actives have a fitted effect of over 60% in size
#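 In this reporter-derepression format, murine cells bearing a silenced integrated CMV-GFP locus incubate with test compound (30 h, 37 C), then are washed and imaged; fluorescent objects of 20–120 um count as induced cells.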
# Tau fluor counter: counter-screen for tau fibril formation inhibitors. AID 1463. 280,000 compounds, 0.93% hits. Potency, µM (titrated, usually from 57.7 µM), for inactives: top-dose activity change, negative = decrease. tau K18 P301L (four-repeat tau fragment) Alexa594 fluorescence, heparin fibrillization; further: potency means the concentration at half of the fitted maximal effect; on the % scale 0 is the no-effect control and ±100 the full control effect; nearly all actives have a fitted effect of over 55% in size
#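 Human K18 P301L tau (15 uM unlabeled plus 0.24 uM Alexa 594-labeled, final) in 100 mM sodium acetate pH 7 was mixed with compound and 20 uM heparin and incubated 6 hr at 37 C.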
# Tau FP inhib: blocks human tau fibril formation measured by polarization | 280,000 compounds, 0.39% hits | Potency, µM (highest dose often 57.7 µM), without a hit: at the top dose activity, negative = inhibition, usual class: inhibitors | P10636 | K18 P301L tau heparin fibrillization, Alexa594 FP, 6 h; further: potency means the concentration at half of the fitted maximal effect; on the % scale 0 is the no-effect control and ±100 the full control effect; nearly all actives have a fitted effect of over 55% in size
#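 Human tau K18 […] P301L fragment, 15 uM unlabeled plus 0.24 uM Alexa 594-labeled tau (final), with compound and 20 uM heparin in 100 mM sodium acetate pH 7; 6 hr at 37 C, then Alexa 594 FP read.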
# CBFb RUNX1 block: CBF-beta/RUNX1 interaction disruption | AlphaScreen CBFb-His/RUNX1-biotin binding, biochemical | 230,000 tested, under 10 active | Q01196+Q13951 | AID 1477 | Potency, µM (series often up to 59.8 µM), for inactives: at the top dose activity, negative = inhibition, hits mostly inhibitors; further: % of control where 0% means no effect
# Target sequence (Q01196 whole entry, looked up): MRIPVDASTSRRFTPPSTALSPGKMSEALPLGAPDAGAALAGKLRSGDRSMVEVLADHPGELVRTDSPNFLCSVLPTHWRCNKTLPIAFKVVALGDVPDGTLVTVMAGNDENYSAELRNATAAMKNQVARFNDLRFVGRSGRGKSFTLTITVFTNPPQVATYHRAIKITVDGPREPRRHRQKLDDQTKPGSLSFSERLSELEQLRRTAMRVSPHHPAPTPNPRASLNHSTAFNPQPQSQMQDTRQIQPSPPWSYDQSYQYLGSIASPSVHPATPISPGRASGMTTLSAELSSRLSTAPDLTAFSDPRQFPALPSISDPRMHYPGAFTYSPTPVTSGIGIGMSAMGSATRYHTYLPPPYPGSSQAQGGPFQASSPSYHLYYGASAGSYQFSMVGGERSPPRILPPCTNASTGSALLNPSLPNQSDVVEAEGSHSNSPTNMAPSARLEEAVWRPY
# Target sequence (Q13951 whole entry, looked up): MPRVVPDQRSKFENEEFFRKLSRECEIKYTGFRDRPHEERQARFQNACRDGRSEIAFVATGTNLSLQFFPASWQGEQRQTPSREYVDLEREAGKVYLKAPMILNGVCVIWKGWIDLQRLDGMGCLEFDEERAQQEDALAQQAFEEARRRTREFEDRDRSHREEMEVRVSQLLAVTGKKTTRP
#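 AlphaScreen binding: CBFb-His and RUNX1-biotin (30 nM each) preincubated 20 min, compound added for 15 min, then nickel and streptavidin beads for 90 min, all at room temperature. Disruption of the interaction by any mechanism counts as activity.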
# TR SRC2 fluor cs: counter-screen for TRb-SRC2 inhibitors: fluorescence interference; AID 1479; TRb/SRC2 Texas Red total fluorescence interference; Potency, µM (top dose mostly 106 µM), inactives show at the top dose fluorescence change, negative = quenching; 280,000 compounds, 0.29% hits; active means well fitted curve in either direction with a large enough effect; inconclusive means small, poorly fitted or top-dose-only effect; further: potency means the concentration at half of the fitted maximal effect; on the % scale 0 is the no-effect control and ±100 the full control effect
#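 Human TRb ligand-binding domain at 0.6 uM with 20 nM Texas Red SRC2 peptide in Tris buffer containing 1 uM T3 and 5% DMSO, incubated with compound 5 h at ambient temperature. Total fluorescence (555/632 nm) calculated as parallel + 2 × perpendicular.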
# TRb-SRC2 inh: disrupts binding of human TR beta to SRC2. P10828. TRbeta-SRC2 peptide binding, fluorescence polarization; receptor liganded with 1 µM T3. Potency, µM (top dose mostly 106 µM), for inactives: top-dose activity change, negative = inhibition, hits mostly inhibitors. 280,000 compounds, 0.065% hits;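 further: potency means the concentration at half of the fitted maximal effect; plate controls were bound peptide for no effect and peptide without receptor for full effect; nearly all actives have a fitted effect of over 50% in size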
#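 Compounds were added to 0.6 uM TRb ligand-binding domain and 20 nM Texas Red-labeled SRC2 peptide in Tris buffer containing 1 uM T3, incubated 5 hr at ambient temperature, then read by fluorescence polarization.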
# An asterisk follows results filed as active; ? = inconclusive; & = joins results of further samples; [ ] = dose if it differs, or a comment. Unless noted, the call rests on the fitted dose curve; in most records, active means well fitted curve in the direction sought with a large enough effect; inconclusive means small, poorly fitted or top-dose-only effect, or another doubt; inactive means no such curve, though single readings can be large; an effect the other way counts as inactive or inconclusive. An excerpt (hit frequency here may not be typical).
smiles	GLA spleen mod	TRb-SRC2 inh	TR SRC2 fluor cs	Epigenetic derep	Tau fluor counter	CBFb RUNX1 block	Tau FP inhib
COC(=O)CSc1nc(NC(C)=O)nc(C)c1Br	1%	0%	0%	-2.6%	-4%	2%	-8%
Cn1c(=O)n(Cc2ccccc2)c(=O)c2c1nc1n2CCCN1CCc1ccccc1	-2%	-4%	-3%	-1.5%	?	-15%	16%
Nc1cc(C(F)(F)F)ccc1-n1cccc1	1%	-10%	-1%	-1.2%	13%	-2%	2%
Nc1nc(/C=C/c2cccnc2)nc(-c2ccccc2O)n1	6%	-2%	-2%	7.2%	-18%	-3%	-9%
O=C(O)c1ccc(NC(=S)NC(=O)c2ccc(-c3ccccc3)cc2)cc1	1%	-7%	-6%	-1.2%	-8%	-4%	3%
CCOC(=O)c1c(NC(=O)c2cccs2)sc2c1CCN(C(=O)OCC)C2	-3%	-17%	-2%	9.3%	3%	27%	-13%
Cc1cc(NC(=S)N(Cc2cccc(Br)c2)CC2CCC(C(=O)O)CC2)ccc1Cl (stereo not given)	-29%	-2%	0%	-0.2%	-11%	-6%	8%
COc1ccccc1N1C(=O)C2C(C(=O)c3ccccc3)=NN(c3ccccc3OC)C2C1=O (stereo not given)	-1%	1%	-3%	-1.9%	-16%	?	10%
CCc1nc(N2CCN(c3nc(C)cc(C)n3)CC2)c2oc3ccccc3c2n1	-8%	-4%	0%	-1.0%	-9%	0%	0%
CCC(=NCc1ccccc1)c1c(C(F)(F)F)[nH]n(-c2nc3ccccc3s2)c1=O	7%	0%	-6%	-0.3%	-11%	5%	3%
COc1ccc(-c2cc(-c3cccnc3)c(C#N)c(N)n2)cc1	?	-13%	0%	?	-5%	13%	-1%
CC(C)C(c1nnnn1Cc1ccco1)N1CCN(c2cccc(Cl)c2)CC1 (stereo not given)	7%	-4%	-4%	-1.0%	-19%	4%	11%
CCOC(=O)Nc1cccc(Nc2ccccc2)c1	-25%	-24%	0%	0.0%	?	-2%	13%
CCCc1nc(SCC(=O)NNC(=O)c2ccc(OC)cc2)c2ccccc2n1	6%	-1%	-1%	-1.5%	-7%	10%	-5%
CCOc1cc(C(=O)CSc2nnc(CNc3ccc(Cl)cc3)o2)ccc1NC(=O)CC	-21%	6%	2%	-2.8%	-17%	3%	-1%
O=C1CC(c2ccccc2)CC(O)=C1C=NCCCN1CCOCC1 (stereo not given)	-5%	-20%	1%	2.0%	-4%	1%	-11%
COC(=O)CSc1nc2c(c(C3CC=CCC3)c1C#N)CCC2 (stereo not given)	-2%	-11%	-2%	0.9%	-14%	25%	3%
CCOC(=O)c1cnc(-n2nc(C)cc2C)nc1NC(C)c1ccccc1 (stereo not given)	2%	10%	0%	-1.0%	-9%	?	-5%
CCCCC(c1nnnn1CC1CCCO1)N1CCN(c2cccc(C)c2C)CC1 (stereo not given)	-7%	-1%	2%	0.0%	-3%	10%	2%
COCCCNC(=O)C1CCN(c2ncccn2)CC1	-19%	1%	1%	-0.1%	2%	5%	-4%
Cn1c(SCC(=O)c2cc3ccccc3o2)nnc1-c1ccccc1	-5%	6%	-2%	?	-2%	-5%	-5%
COc1ccc(-n2ncc3c(N4CCc5ccccc54)ncnc32)cc1	7%	-9%	1%	-0.7%	-4%	9%	3%
Cc1ccccc1C(C(=O)NC1CCCCC1)N(C(=O)c1ccccn1)c1cccnc1 (stereo not given)	-10%	-6%	-3%	0.0%	-3%	6%	-4%
CSc1nc(N2CCN(C)CC2)c2c(c1C#N)CC(C)(C)OC2	13%	-2%	-5%	0.0%	3%	3%	-4%
Cc1cc(C)nc(-n2nc(C)c(Sc3ccc(F)cc3)c2N)n1	2%	-3%	2%	0.8%	-14%	-3%	6%
Nc1c(C(=O)OCC2CCCO2)c2nc3ccccc3nc2n1C1CCCC1 (stereo not given)	?	-4%	0%	1.9%	?	19%	3%
c1cnc2ccc(C(c3nnnn3C3CCCCC3)N3CCN4CCCC4C3)cc2c1 (stereo not given)	5%	0%	-4%	-1.0%	8%	-1%	-1%
CC(=O)Nc1c(I)c(NC(C)=O)c(I)c(C(=O)O)c1I	8%&1%	-2%&-1%	0%&1%	1.0%&0.0%	-8%&-10%	9%&1%	-9%&-9%
O=C1N(S(=O)(=O)c2ccccc2F)C(=O)C2(CCCC2)N1S(=O)(=O)c1ccccc1F	-20%	6%	-6%	-1.0%	4%	-1%	3%
NCCc1nc(-c2ccccc2)cs1	-13%	-3%	-4%	3.5%	-6%	6%	-3%
CC(C)NC(=O)C(OC(=O)c1ccccc1)C(OC(=O)c1ccccc1)C(=O)O (stereo not given)	3%	4%	2%	-1.1%	0%	1%	-1%
O=C(Nc1c(Cl)cc(Cl)cc1-c1nc2ccccc2s1)c1ccc(Br)o1	0%	2%	2%	-1.0%	-21%	13%	-5%
CCOC(=O)c1cc(C#N)c(Oc2ccccc2OC)nc1-c1ccccc1	-7%	5%	-1%	0.2%	-27%	27%	-5%
O=C(c1ccco1)N1CCN(c2nc(C3CC3)nc3c2nnn3Cc2ccccc2Cl)CC1	-8%	-9%	-3%	0.0%	-8%	-11%	4%
Nc1ccccc1N=Cc1ccc(-c2cccc(Cl)c2)o1	?	3%	2%	6.6%	?	-22%	-8%
Fc1ccc(C2c3cccn3CCN2C(=S)Nc2cccc(F)c2)cc1 (stereo not given)	-4%	2%	3%	-2.2%	?	2%	-15%
CCN(Cc1ccccc1)C(c1ccccn1)c1nnnn1C1CCCCC1 (stereo not given)	0%	2%	-4%	-7.5%	-6%	11%	6%
COc1cccc(/C=C/C(=O)c2cccc([N+](=O)[O-])c2)c1	-6%	7%	-4%	0.1%	?	3%	?
Fc1ccc(/C=N/NC(=S)Nc2cccnc2)cc1	-6%	-4%	-4%	0.0%	-18%	-10%	-4%
COc1ccc2[nH]c(C)c(C(=O)CN(C)CC3OCCO3)c2c1	21%	-6%	-8%	1.1%	-13%	26%	0%
COc1cccc(-c2cc3nc4c(c(N5CCC6(CC5)OCCO6)n3n2)CCCC4)c1	-5%	2%	-2%	0.9%	-9%	28%	12%
CCOc1ccc2ncc(C(=O)c3ccc(OC)cc3)c(N3CCN(CC)CC3)c2c1	-5%	6%	-1%	2.6%	0%	-20%	2%
COc1ccc(-c2cc(C(F)(F)F)c3c(n2)sc2c(O)cc(=O)[nH]c23)c(OC)c1	-5%	-2%	0%	11µM*	-21%	17%	-1%
C=CCn1c(CCNC(=O)c2ccccc2F)nnc1SCc1nc2ccccc2c(=O)[nH]1	-8%	8%	1%	0.0%	3%	1%	6%
Cc1cc(NC(=O)CSc2nc3cc(Cl)ccc3c(=O)n2Cc2ccco2)no1	-6%	2%	-3%	14%	-2%	3%	1%
O=Nc1c2nc3ccccc3n(O)c-2c2ccccc12	5%	16%	-9%	-1.0%	-21%	2%	-4%
CCc1ccc(Nc2cnn(-c3nc4ccccc4s3)c(=O)c2Cl)cc1	2%	-1%	-2%	-1.1%	-14%	17%	-1%
Cc1ccc(OCc2nnc(SCC(=O)Nc3cc(C)on3)n2C)cc1	-6%	-4%	1%	-1.0%	-5%	6%	7%
Cc1nnc(-c2cccc(Br)c2)c2cn(-c3ccccc3Cl)nc12	?	-2%	-1%	-1.4%	-6%	0%	-2%
CC(=O)Cc1nsc(NC(=O)c2cn(-c3ccccc3)nc2-c2ccc(Br)cc2)n1	4%	3%	0%	0.8%	?	3%	?

# More structures:
smiles	GLA spleen mod	TRb-SRC2 inh	TR SRC2 fluor cs	Epigenetic derep	Tau fluor counter	CBFb RUNX1 block	Tau FP inhib
CCN(C(=O)c1cc2c(=O)[nH]c3ccc(C)cc3c2s1)c1ccccc1C	0%	-8%	-1%	8.2%	?	14%	2%
CCCCN(CC)CCNC(=O)c1nn(-c2ccc(OC)cc2)c(=O)c2c1c1ccccc1n2C	1%	-2%&8%	-3%&0%	3.8%&-1.1%	?	-2%	-9%&-11%
NC(=O)c1ccsc1NC(=O)c1ccc(S(=O)(=O)N2CCCCC2)cc1	0%	10%	0%	0.1%	?	-2%	-15%
C=CCNc1ncnc2c1cnn2-c1ccc(OC)cc1	1%	-4%	1%	2.2%	-14%	1%	-5%
CC1=C(CC/C(C)=N/NC(N)=S)C(C)(C)CCC1	-5%	6%	-2%	?	-11%	15%	9%
CS(=O)(=O)N(CC(=O)Nc1ccc(Cl)c(Cl)c1)C1CCCCC1	-3%	-4%	-1%	2.8%	?	5%	-17%
CCN(CC)C(=O)c1[nH]cnc1C(=O)N[C@@H](C)C(=O)OCc1ccccc1	15%	3%	0%	0.2%	1%	10%	1%
COc1ccc(CNC(=O)C2CC(c3ccc(OC)cc3)=NO2)cc1 (stereo not given)	-6%	-16%	-3%	-1.2%	9%	-1%	1%
O=C(COC(=O)c1ccc(O)cc1)Nc1cccc(S(=O)(=O)NC2=NCCCCC2)c1	3%	3%	3%	0.1%	-18%	9%	-11%
O=C(O)c1cccc(CN2C(=O)S/C(=C/c3cccc([N+](=O)[O-])c3)C2=O)c1	1%	-2%	-2%	-7.1%	-1%[0.0958 µM]	1%	-6%[0.0958 µM]

# Full records from above. Values in the order: GLA spleen mod | TRb-SRC2 inh | TR SRC2 fluor cs | Epigenetic derep | Tau fluor counter | CBFb RUNX1 block | Tau FP inhib
# `COc1ccc(-c2cc(C(F)(F)F)c3c(n2)sc2c(O)cc(=O)[nH]c23)c(OC)c1` is entered as -5% | -2% | 0% | 11µM* | -21% | 17% | -1%
# `COc1ccc(CNC(=O)C2CC(c3ccc(OC)cc3)=NO2)cc1` (stereo not given) is entered as -6% | -16% | -3% | -1.2% | 9% | -1% | 1%

# (more compounds)
smiles	GLA spleen mod	TRb-SRC2 inh	TR SRC2 fluor cs	Epigenetic derep	Tau fluor counter	CBFb RUNX1 block	Tau FP inhib
CCOC(=O)c1ccc(NC(=O)CN(c2ccc(C)cc2)S(=O)(=O)c2c(C)nn(C)c2C)cc1	-10%	-10%	-2%	-1.0%	?	0%	?
CC1=C(C(=O)Nc2ccccc2)C(c2cccs2)n2nnnc2N1 (stereo not given)	-1%	-3%	-2%	-3.6%	-17%	?	1%
Cc1ccccc1NC1c2ccccc2C(=O)N1Cc1ccco1 (stereo not given)	0%	-11%	-3%	2.6%	-12%	-14%	-3%
CCOC(=O)N1CCC(NC(=O)C2CCCN(c3nc4ccccc4o3)C2)CC1 (stereo not given)	2%	6%	1%	-1.8%	-8%	-4%	-3%
